# Kir21 block: inhibitors of mouse Kir2.1 inward-rectifier potassium channel; HEK293-Kir2.1, FluxOR thallium flux fluorescence; hits give low values; B-score at 10 µM; 310,000 compounds, 0.85% hits;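 active means fluorescence ratio B-score at or below minus 3 SD of library scores, with starting-brightness B-score within 2 SD, cut at about -4.2 in these data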;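 further: channel flux triggered by added potassium and thallium sulfate stimulus; B-score of peak minus minimum fluorescence over baseline after thallium stimulus; more negative B-score means stronger Kir2.1 block with less thallium influx; some compounds called inactive have numbers as strong as hits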
# Target sequence (P35561 whole entry, looked up): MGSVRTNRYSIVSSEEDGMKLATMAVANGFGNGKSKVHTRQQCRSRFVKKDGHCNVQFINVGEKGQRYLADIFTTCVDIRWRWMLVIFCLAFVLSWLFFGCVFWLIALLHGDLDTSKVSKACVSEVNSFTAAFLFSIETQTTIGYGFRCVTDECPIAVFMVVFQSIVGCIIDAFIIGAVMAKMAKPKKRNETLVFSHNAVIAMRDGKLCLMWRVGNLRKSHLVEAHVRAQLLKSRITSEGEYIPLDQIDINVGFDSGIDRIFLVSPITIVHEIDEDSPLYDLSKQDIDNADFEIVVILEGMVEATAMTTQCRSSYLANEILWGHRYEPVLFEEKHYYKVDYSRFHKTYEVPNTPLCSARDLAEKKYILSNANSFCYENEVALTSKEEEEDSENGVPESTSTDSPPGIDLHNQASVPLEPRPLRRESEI
# Numbers without * were called inactive. An excerpt, and most or all hits are left out here.
Kir21 block	molecule
-1.1	CC(NC(=O)c1cccnc1)C(c1cccs1)N1CCOCC1 (stereo not given)
-1.1	Cn1c(=O)n(C)c2cc(NS(=O)(=O)c3ccc(Cl)s3)ccc21
-3.1	COc1ccc(Cl)cc1S(=O)(=O)NCc1cccs1
-1	CCC1(CC)C(=O)C2=C3C1[C@H](C(=O)OC)C=C(C(=O)OC)C[C@H]3[C@H]1C(=O)N(Cc3ccccc3)C(=O)[C@H]1[C@H]2C (stereo not given in full)
-1.5	COc1cccc(NC(=O)Nc2ccc(Cc3ccncc3)cc2)c1
-0.95	CSCCC(=O)N1CCCC(CNC(=O)c2ccccc2Cl)C1 (stereo not given)
-0.22	Cc1cc(C)c2c(N)c(S(=O)(=O)Cc3ccccc3)sc2n1
-0.22	c1ccc2oc(-c3[nH]ncc3CN(Cc3ccncc3)CC3CCCO3)cc2c1 (stereo not given)
0.35	Cc1ccc2cc(/C=C/C(=O)c3ccco3)c(Cl)nc2c1
-0.71	Cc1nn(CC(=O)OCCOc2ccc(Br)cc2)c(C)c1[N+](=O)[O-]
1.7	O=C(O)c1ccc(CSCc2c(F)cccc2Cl)o1
-0.14	Cc1ccccc1NC(=O)c1cccc(Cn2cc(Br)c([N+](=O)[O-])n2)c1
2.7	O=C(c1cc(F)c(F)cc1Cl)N1CCN(c2ncccn2)CC1
1.1	CCN(CC)S(=O)(=O)c1ccc(NC(=O)COC(=O)c2ccc(NC(=O)CC#N)cc2)cc1
-1.7	COc1ccc(C(=O)NNC(=O)CSc2nnc(COc3ccccc3)n2C)cc1
-0.28	NC(=O)CC(NC(=O)c1cccc(Br)c1)c1ccc(NC2CCCCCCCCCCC2)c([N+](=O)[O-])c1 (stereo not given)
1.5	Cc1cc(C)c2c(-n3cccc3)nn(C)c2n1
0.69	COc1cccc(CN2CCCC(C(=O)N3CCCCC3)C2)c1OC (stereo not given)
-0.41	Cc1ccc(S(=O)(=O)N2CCOCC2)cc1NC(=O)CSc1n[nH]c(N)n1
0	CCOC(=O)c1c(S(=O)(=O)NCC(=O)Nc2cc(C)ccn2)c(C)n(C)c1C
1.1	COc1ccc(OCC(=O)Nc2ccc(N3CCN(Cc4ccccc4F)CC3)cc2)cc1
-0.27	Cc1ccc(S(=O)(=O)NCC(=O)Nc2ccc3c(c2)OCO3)cc1
-0.03	Cc1cccc2nc3c(nc12)-c1ccccc1C3=O
1.3	N#CNC(=Nc1cccc(Cl)c1)Oc1ccccc1
-0.66	CC1CCCC(NC(=O)c2ccc3c(c2)N(Cc2ccccc2)C(=O)CS3=O)C1C (stereo not given)
-0.08	Cc1nn(C)cc1CNC(=O)c1cccc(Cl)c1
-1.4	CCc1ccc(OCC(O)CN2CCCC2)cc1 (stereo not given)
0.2	Cc1ccccc1CN1CCC(N2CCC(C(=O)NCC3CCCO3)CC2)CC1 (stereo not given)
3	Cc1cnc(C(=O)OCC(=O)Nc2cc(-c3ccccc3)nn2-c2ccccc2)cn1
0.43	O=C(c1ccco1)N1CCN(c2nc(C(F)(F)F)nc3c2nnn3Cc2ccccc2)CC1
-0.43	Cn1c(=O)c(-c2ccccc2[N+](=O)[O-])c(Cl)c2ccccc21
-0.41	COC(=O)N/N=C/c1cc(C)n(-c2ccc(Br)cc2)c1C
-0.2	CN1CCN(C(=O)c2ccc3c(c2)N(Cc2ccccc2F)C(=O)c2ccccc2S3=O)CC1 (stereo not given)
-0.01	CCc1noc(C)c1C(=O)Oc1ccc(N(C)S(=O)(=O)c2ccccc2)cc1
0.51	COc1ccccc1C(=O)NCCCCNC(=O)c1ccccc1OC
-0.92	CCCCCCCC(=O)NC(Nc1ccc(S(N)(=O)=O)cc1)C(Cl)(Cl)Cl (stereo not given)
-0.01	CCOC(=O)c1cnc(SCCN2CCOCC2)nc1N
0.15	COc1ccc(CN2C(=O)c3cccnc3C2=O)cc1S(=O)(=O)N(C)c1ccc(C)cc1
-0.91	CCOC(=O)c1c(C(F)(F)C(F)(F)C(F)(F)C(F)(F)F)n[nH]c1C
-0.72	CC(=O)c1cc2c(cc1NS(=O)(=O)c1ccccc1C)OCO2
-0.38	O=C(NCc1cccs1)C1CCCN(C(=O)Nc2ccc(F)cc2)C1 (stereo not given)
1.6	CC(C)(C)NC(=O)NC(=O)CN1CCN(C(c2ccccc2)c2ccccc2)CC1
-2.6	CN1CCc2c(sc3c2C(=O)NC(c2ccc(-c4cccc(Cl)c4)o2)N3)C1 (stereo not given)
0.67	CNC(=O)N(O)C1N(/N=C/c2cccs2)C(=S)SC1(C)C (stereo not given)
0	COc1ccc(C(=O)Nc2ccc(NC(=O)c3cnccn3)cn2)cc1
1.2	O=C(O)C1CCCN1c1ncnc2c1oc1ccccc12 (stereo not given)
-1.3	COCCn1c(SC(C)C(=O)Nc2ncc(Cl)cc2Cl)nc2ccccc21 (stereo not given)
-0.08	COc1ccc(C2(c3ccc(OC)cc3)NC(=O)N(CC(=O)Nc3ccc(N4CCOCC4)cc3)C2=O)cc1
-0.42	Cc1ccccc1Nc1c(-c2ccccn2)nc2ccccn12
-0.66	Cc1ccc(Nc2nc(CSc3nnnn3C)cs2)cc1

# Following part:
Kir21 block	molecule
-1.6	O=c1[nH]c2ccc(NS(=O)(=O)c3ccc4ccccc4c3)cc2[nH]1
-0.48	COc1ccccc1C(=O)NCC(=O)NC(C)c1ccc(-n2ccnc2)cc1 (stereo not given)
0.19	COc1ccc(/C(N)=N/OC(=O)c2ccc([N+](=O)[O-])c(C)c2)cc1OC
-0.04	COc1cc2cc(Oc3ccc4ccc(=O)oc4c3)c(=O)oc2cc1OC1OC(COC(=O)CC(C)(O)CC(=O)O)C(O)C(O)C1O (stereo not given)
0.22	Cc1ccc(NC(=O)c2ccco2)cc1NC(=O)CSc1nnc(-c2cccs2)n1C
-0.74	Cc1cc(C(=O)Nc2c(C)nn(Cc3ccccc3Cl)c2C)no1
0.8	CCc1ccc(CN2CCC(Oc3ccc(C(=O)N4CCCCC4)cc3)CC2)cc1
-0.83	Cc1ccc(NC(=O)c2ccc(OC(F)(F)F)cc2)cc1S(=O)(=O)N(C)C
1.8	COc1ccc(Nc2nc(-c3cccnc3)cs2)c(OC)c1
-0.02	COc1cccc(OCc2cc(C(=O)N(C)C3CCOCC3)no2)c1
0	CCN(CC(=O)Nc1ccc(NC(C)=O)cc1)CC(=O)Nc1cccc(Cl)c1
-2.5	Cc1ccc(S(=O)(=O)NCCCCCC(=O)Nc2ccccc2)cc1
2	OC1CCN(CC(O)C(F)(F)F)CC1 (stereo not given)
0.01	O=C(Oc1ccc(OC(=O)N2CCCCC2)cc1)c1ccccc1
-0.01	CCN(CC)c1c([N+](=O)[O-])ncn1C
-0.76	Cc1cc(C)cc(NC(=O)COC(=O)CCc2ccc(S(=O)(=O)N3CCOCC3)cc2)c1
-0.05	CC(=O)N1CCN(Cc2nc3cc(NC(=O)c4ccccc4Cl)ccc3n2C)CC1
-0.64	COc1ccc(OCC(=O)Nc2ccc(S(=O)(=O)Nc3cc(C)nc(C)n3)cc2)cc1
0.43	C#Cc1ccc([C@H]2C=C(C(=O)Nc3ccccc3)O[C@@H](OCc3ccc(CO)cc3)C2)cc1
0.25	O=C(Nc1ccc(/C=C/c2nc3ccccc3o2)cc1)c1c(F)cccc1F
-1.6	CCN(CC)C(=O)Cn1cnc2sc(C(=O)N3CCN(c4ccc(OC)cc4)CC3)c(C)c2c1=O
0.38	CCn1c(SCC(=O)Nc2nccs2)nnc1-c1ccc(S(=O)(=O)N2CCCCC2)cc1
0.06	COC(=O)c1cc(C)sc1NC(=O)c1ccco1
0.29	O=C(CNC1CCCCC1)Nc1ccc(S(=O)(=O)N2CCCCC2)cc1
0.12	O=c1c2ccccc2c(C=Nc2ccc(Cl)cn2)c(O)n1-c1cc(Cl)ccc1N1CCOCC1
-1.4	CCOC(=O)C1CCN(C(=O)COC(=O)CSc2ccc([N+](=O)[O-])cc2)CC1
-1.3	CN(C(=O)c1ccc2nccnc2c1)C1CCCCC1
0.94	O=C(CCn1c(=O)[nH]c2ccsc2c1=O)N(CCc1ccccc1)Cc1ccccc1
0.92	O=C1CC(c2ccccc2)CC(O)=C1C=NCc1ccc(Cl)cc1 (stereo not given)
0.46	O=C(COc1ccc(Br)cc1)Nc1ccccc1C(=O)NC1CC1
2	CCOc1ccc(-n2c(SCC(=O)Nc3ccccc3CC)nc3n[nH]c(C)c3c2=N)cc1
0.92	COc1ccc2c(CC(=O)OCC(=O)NC(=O)c3cccn3C)coc2c1
0.03	CC1CCN(S(=O)(=O)c2ccc3c(c2)N(CC(=O)NCCCN2CCCC(C)C2)C(=O)CS3)CC1 (stereo not given)
2.1	CC1(C)CC(=O)C2=C(C1)Nc1ccccc1NC2c1nc2ccccc2[nH]1 (stereo not given)
0.44	O=C(Nc1ccc(OC(F)F)cc1)c1ccccn1
1.5	COc1ccc(NC(=O)Nc2ccc3[nH]ccc3c2)cc1
-0.85	Cc1ccc(S(=O)(=O)CCc2nnc(NC(=O)c3ccco3)s2)cc1
0.01	CCOc1cc(CN2CCN(C(=O)c3cccc4ccccc34)CC2)ccc1OC
0.01	Cc1cc(=O)oc2cc(OCC(=O)Nc3nnc(CC(C)C)s3)ccc12
0.46	CCOc1ccccc1N1CCN(CC(=O)Nc2nc(C)c(C(=O)N(C)C)s2)CC1
-0.09	CCN1CCN(CC(=O)N2N=C(c3cccs3)CC2c2ccc(C)cc2)C(=O)C1=O (stereo not given)
0.68	NC(=O)C1CCN(C2OC(=O)c3ccccc32)CC1 (stereo not given)
0.93	O=C(Cc1ccccc1)c1c[nH]c(C(=O)NCc2ccncc2)c1
0.78	COc1ccc(NC(=O)c2cc(S(=O)(=O)N3CCCC3)ccc2OC)cc1
-0.19	COc1ccc2nc(SCC(=O)Nc3ccc(S(=O)(=O)Nc4nccc(C)n4)cc3)[nH]c2c1
-0.58	Cn1c(=O)oc2cc(S(=O)(=O)N3CCc4ccccc43)ccc21
1.3	COC(=O)C1=C(C)N(CC2CC2)C(=O)N[C@H]1c1ccccc1
0.01	O=C(NCCCCCCNC(=O)c1cncc(O)c1)c1cncc(O)c1
0.33	Cc1cccc2cc(C3CC(c4ccco4)=NN3S(C)(=O)=O)c(Cl)nc12 (stereo not given)
0.72	CCCN1CCN(CCCNC(=O)Cn2cc3c(n2)CCCC3)CC1

# (cont.)
Kir21 block	molecule
-3.9	O=C1c2ccccc2C(Nc2ccc(S(=O)(=O)N3CCCCCC3)cc2)N1c1ccccn1 (stereo not given)
-1.4	C[C@H]1C=C(C(=O)N2CCOCC2)O[C@@H](OCc2ccc(CO)cc2)C1
1.7	CCN(CC)S(=O)(=O)c1ccc(C(=O)Nc2nnc(NC(=S)Nc3ccccc3)s2)cc1
-0.22	COc1cccc(NC(=O)c2cc(OC)c(OC)c(OC)c2Br)c1
-0.1	Cc1ccc(N(C(=O)Cn2nnc(-c3ccccc3F)n2)C(C(=O)NC2CCCC2)c2ccncc2)cc1 (stereo not given)
-0.25	O=C(COc1cccnc1[N+](=O)[O-])NCCc1ccc(Cl)cc1
0.04	COc1cc2c(cc1OC)CN(Cc1ccc(OC)c(C)c1OC)CC2
1.4	CCn1c(SCC(=O)N2CCOCC2)nnc1-c1ccco1
0.42	c1cncc(-c2nn3cnnc3s2)c1
-0.74	CN1CCN(C(=O)c2ccccc2N(Cc2ccccc2)S(C)(=O)=O)CC1

# By substructure: the compounds so far containing an aryl thioether with sulfur outside any ring.
Kir21 block	molecule
-1.7	COc1ccc(C(=O)NNC(=O)CSc2nnc(COc3ccccc3)n2C)cc1
-0.41	Cc1ccc(S(=O)(=O)N2CCOCC2)cc1NC(=O)CSc1n[nH]c(N)n1
-0.01	CCOC(=O)c1cnc(SCCN2CCOCC2)nc1N
-1.3	COCCn1c(SC(C)C(=O)Nc2ncc(Cl)cc2Cl)nc2ccccc21 (stereo not given)
-0.66	Cc1ccc(Nc2nc(CSc3nnnn3C)cs2)cc1
0.22	Cc1ccc(NC(=O)c2ccco2)cc1NC(=O)CSc1nnc(-c2cccs2)n1C
0.38	CCn1c(SCC(=O)Nc2nccs2)nnc1-c1ccc(S(=O)(=O)N2CCCCC2)cc1
-1.4	CCOC(=O)C1CCN(C(=O)COC(=O)CSc2ccc([N+](=O)[O-])cc2)CC1
2	CCOc1ccc(-n2c(SCC(=O)Nc3ccccc3CC)nc3n[nH]c(C)c3c2=N)cc1
-0.19	COc1ccc2nc(SCC(=O)Nc3ccc(S(=O)(=O)Nc4nccc(C)n4)cc3)[nH]c2c1
1.4	CCn1c(SCC(=O)N2CCOCC2)nnc1-c1ccco1

# Next records
Kir21 block	molecule
0.42	Cc1nnc(NC(=O)Cn2cnc3c2c(=O)n(C)c(=O)n3C)s1
-0.29	Cc1ccc[n+](CC(=O)Nc2cccc(Cl)c2)c1
0.7	Oc1ccc(Br)cc1CNc1nccs1
0	Cc1ccc(C)c(OCc2cc(C(=O)N3CCN(C(=O)c4ccco4)CC3)no2)c1
0.11	CC(C)C(C(=O)NCc1ccco1)N(Cc1ccco1)C(=O)CNS(=O)(=O)c1ccc(F)cc1 (stereo not given)
-0.03	c1ccc(-c2cc(N3CCCCC3)ncn2)cc1
-1.9	CCOC(=O)C(Cc1ccc(O)cc1)NC(=O)CNC(=O)C1CCCN1C(=O)OC(C)(C)C (stereo not given)
-0.1	CCCCCCc1c(O)nc(SCCN2CCOCC2)[nH]c1=O
-0.17	CC(C)CC(NC(=O)/C(=C\c1ccco1)NC(=O)c1ccco1)C(=O)O (stereo not given)
-1.2	O=C1CSC(c2ccc([N+](=O)[O-])cc2)N1c1ccccc1 (stereo not given)
0.02	CCOC(=O)c1[nH]ncc1CN1CCCC(C(=O)c2ccc(SC)cc2)C1 (stereo not given)
2	COc1ccc(OC)c(-n2nnnc2SCC(=O)Nc2ccc3c(c2)OCCO3)c1
-0.03	COc1c2ccc(C(=O)NCc3cc(C(F)(F)F)cc(C(F)(F)F)c3)cc2nn1C
1.5	O=C(CSc1nc2ccccc2c(=O)n1NC(=O)c1ccccc1)c1ccc(Cl)cc1
-2.2	S=c1[nH]ncn1NCc1ccc(Cl)cc1Cl
-0.68	Cc1cccc(C)c1N1C(=O)c2cccc([N+](=O)[O-])c2C1=O
-1.4	CC(C)C[C@H]1COCCS(=O)(=O)N1Cc1ccc(Cl)c(Cl)c1
0.67	Cn1ccnc1SCC(=O)Nc1ccc2c(c1)OCCO2
1.3	O=C(Nc1ccccc1C(=O)NCc1ccco1)Nc1cccc2ccccc12

# Screening results as filed in PubChem BioAssay.
